# Bioassay records (PubChem BioAssay)
# Calb FLC – C. albicans growth modulation with fluconazole. C. albicans CaCi-2 (fluconazole-resistant clinical isolate) + fluconazole, Alamar Blue growth, 48 h. growth inhibition, % (no concentration beside the values). hit rate 0.57% among 300,000;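 active means most replicates above 75%; inconclusive means exactly half above 75%; inactive means most below 75%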;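 further: all wells also contain fluconazole at 8 µg/ml as a sub-toxic cotreatment; 0% = median of DMSO wells and 100% = median of geldanamycin control wells; wells of about 8 µL received 7.5 nL stock; the first replicate is given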
# RanGTP-Impb inh – disruptors of Ran-importin-beta complex formation – biochemical, FRET, CFP-Ran, YFP-importin-beta, homogeneous, primary screen; cell-free CFP-Ran/YFP-importin-beta FRET ratio; inhibition, % (no concentration beside the values); hit rate 1.1% among 300,000;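 active means most replicates above 15%; inconclusive means exactly half above 15%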;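 further: 0% = DMSO wells and 100% = Ran loaded with GDP instead of GTP; wells of about 40 µL received 100 nL stock; the first replicate is given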
# Vif TR-FRET – HIV-1 Vif–A3G interaction blockers – biochemical, TR-FRET, GST-Vif 1-94, biotin-A3G peptide, dose response retest, primary screen (AID 1117319) | TR-FRET GST-Vif / biotin-A3G peptide binding; higher % means a stronger effect; test concentration not given here; strong numbers were not always called active | inhibition, %; hits with a dose series show IC50 in µM | hit rate 0.57% among 260,000;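 active means above the screen mean plus three standard deviations and confirmed in dose response; inconclusive means results disagree or hit not tested in dose response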;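 further: Vif residues 1-94 fused to GST binding biotinylated APOBEC3G peptide 110-148; 0% = full assay without inhibitor and 100% = GST in place of GST-Vif; retest series ran down from 100 µM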
# LANA-H2A inh – blocks KSHV LANA binding to histone H2A/H2B. Q9QR71. cell-free LANA-H2A/H2B peptide, fluorescence polarization. inhibition, % (test concentration not listed). hit rate 0.6% among 320,000; in the data active means inhibition mostly above about 10%, no sharp cut-off; inactive means mostly below about 6.7%;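 further: stock transfer was 7.5 nL into about 10 µL; 0% = median of vehicle wells and 100% = median of positive control wells; one replicate is shown; the record names a cut of 25% in any replicate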
# AF4-AF9 inh – MLL-AF4/AF9 protein interaction inhibition; inhibition, % at 10 µM; hit rate 0.47% among 350,000; P42568; AlphaScreen, biotin-AF4 peptide binding to FLAG-AF9;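 active means every replicate reaching a set inhibition limit, whatever the replicate mean, cut at about 25% in these data; inconclusive means mean inhibition reaches that limit but some replicates miss it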;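 further: 0% = plate neutral control median and 100% = total signal loss; the record names both 10 and 1 µM as test concentration; the first replicate is given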
# Target sequence (P42568 whole entry, looked up): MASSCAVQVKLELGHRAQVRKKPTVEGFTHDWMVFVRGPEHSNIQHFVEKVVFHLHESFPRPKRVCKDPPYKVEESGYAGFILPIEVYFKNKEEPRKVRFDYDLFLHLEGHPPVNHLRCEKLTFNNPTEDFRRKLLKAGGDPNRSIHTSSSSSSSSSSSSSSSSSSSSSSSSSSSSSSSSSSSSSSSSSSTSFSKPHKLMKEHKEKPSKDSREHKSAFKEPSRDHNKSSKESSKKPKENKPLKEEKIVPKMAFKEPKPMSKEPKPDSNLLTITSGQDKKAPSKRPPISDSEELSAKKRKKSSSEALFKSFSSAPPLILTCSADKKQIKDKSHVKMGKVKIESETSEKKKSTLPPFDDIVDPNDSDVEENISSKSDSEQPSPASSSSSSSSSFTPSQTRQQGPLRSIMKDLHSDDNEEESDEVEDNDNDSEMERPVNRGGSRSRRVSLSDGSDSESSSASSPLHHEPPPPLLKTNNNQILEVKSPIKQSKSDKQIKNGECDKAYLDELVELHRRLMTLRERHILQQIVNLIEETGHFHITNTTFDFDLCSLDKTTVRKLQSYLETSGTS
# Beta apoptosis – blocks beta cell apoptosis; protection from apoptosis, % (concentration not given with the values); INS-1E cytokine-induced death, ATP luminescence, 48 h; percent of positive-control rescue, neutral wells zero; hit rate 0.8% among 300,000;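 active means all replicates at 75% or more, or half of them and the mean; inconclusive means half reach 75% but not the mean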;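 further: 0% = cytokine-treated negative control wells and 100% = positive control rescue; higher means more ATP so stronger rescue from cytokine killing; wells of about 40 µL received 100 nL stock; the first replicate is given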
# T cruzi inh – blocks replication of Trypanosoma cruzi; AID 1885; hit rate 1.4% among 300,000; T. cruzi beta-gal in NIH3T3, luminescence, 90 h; inhibition, % (test concentration not listed);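 active means mean inhibition across valid replicates above about 55%, limit read from the data; inconclusive means mean below that limit but half or more replicates reach it; inactive means mean below it, under half of replicates reach it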;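 further: signal also drops with host cell toxicity which is not excluded here; 0% = plate median of DMSO wells and 100% = zero luminescence signal; higher percent means less beta-gal luminescence so fewer parasites; stock transfer was 50 nL into about 50 µL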
# A1 inh – inhibitors of the anti-apoptotic protein A1, read as caspase activation. caspase activation, % (concentration not given with the values). AID 2462. hit rate 0.066% among 330,000. MEF A1-2A-BIM cells, Caspase-Glo 3/7 luminescence, 3 h; percent of clofoctol response, vehicle zero;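 active means over half of replicate activation scores above 10%, or exactly half above 10 with the replicate mean above 10; inconclusive means replicate mean below 10 yet half the replicates above 10; inactive means over half of replicates below 10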;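 further: wells of about 30 µL received 50 nL stock; many hits fall short of the cut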
# Numbers without * were called inactive; ? = inconclusive; . = not tested or not shown.
SMILES,Calb FLC,RanGTP-Impb inh,Vif TR-FRET,LANA-H2A inh,AF4-AF9 inh,Beta apoptosis,T cruzi inh,A1 inh
CC(C)NC(=O)NC(=O)CN1c2cccc3cccc(c23)S1(=O)=O,16,0.3,0%,2.4,-5.3,-5,1,0.7
CC(C)C(NC(=O)c1ccc(C(C)(C)C)cc1)C(=O)Nc1ccc(N2CCOCC2)cc1 (stereo not drawn),.,.,.,-5.0,6.0,4,.,0.4
Cc1ccc2c(c1)N(CC(=O)N1CCN(c3nc4ccccc4s3)CC1)C(=O)C(C)O2 (stereo not drawn),18,?,-3%,-7.9,.,5,6,0.9
COc1cccc2cc3c(=O)oc4ccccc4c3nc12,-1,6.7,1%,4.5,.,0,-4,-0.2
COc1ccc(C2CC(=O)c3sc(NC(C)=O)nc3C2)cc1 (stereo not drawn),-1,1.6,-12%,-2.1,.,-5,-11,-0.4
CCn1c(SCC(=O)O)nnc1-c1ccc2[nH]c(C)c(C)c2c1,3,4.4,-3%,-4.3,0.2,0,-3,-0.3
O=C(Nc1ccc(F)c(Cl)c1)c1cc(-c2ccco2)on1,-13,2.8,3%,5.1,-0.9,2,-10,0.5
COc1cccc(NC(=O)CN(C)C(=O)c2c(-c3ccccc3)noc2C)c1,-3,2.4,0%,1.2,-0.3,-6,-17,0.3
Cc1cccc(OC(C)C(=O)Nc2ccc(S(=O)(=O)N3CCCC3)cc2)c1 (stereo not drawn),7,2.6,.,-0.6,2.5,.,14,1.3
Cn1cc(CN2CCCC(CNC(=O)c3ccc4c(c3)OCO4)C2)c2ccccc21 (stereo not drawn),-13,-1.3,-1%,1.8,4.4,.,66*,0.9
COc1cc2nc(C3CCC3)n(NC(=O)c3ccco3)c(=O)c2cc1OC,8,1.4,1%,2.2,-1.7,3,-3,0.5
CCOc1ccc(NC(=O)CN2CCN(CC(=O)Nc3ccc4c(c3)OCO4)CC2)cc1,?,0.7,2%,0.6,.,.,13,-0.5
CCc1ccc(CNCc2ccc(F)cc2)cc1,-1,1.0,-3%,2.2,1.7,4,0,-0.4
CC(=O)c1ccc(NC(=O)CSc2ccsc2[N+](=O)[O-])cc1,-18,-5.3,-9%,.,-2.4,.,1,.
CCc1nc2cc(Cl)c(Cl)cc2[nH]1,-9,-3.4,25%,-0.5,.,-4,10,-0.8
CC(=O)c1cc2c(cc1NC(=O)CN1CCCCCC1)OCO2,-1,-4.3,32%,0.8,.,-2,-1,-1.0
CC(C)NC(=O)c1ccc2c(=O)n(C3CCCC3)c(=S)[nH]c2c1,1,1.1,-7%,-3.8,.,-5,10,?
CCCOC(=O)Nc1ccc(C(N)=O)cc1,2,?,0%,-1.5,.,-4,-11,0.1
COc1cccc(NC(=O)N2CCN(S(C)(=O)=O)CC2)c1,-9,-2.8,.,-0.2,0.4,-4,-9,0.2
O=c1c2ccccc2nc2n1CCS2(=O)=O,-6,2.8,.,3.3,.,-4,-12,1.2
COc1ccc(C(=O)/C=C2\NCCc3cc(OC)c(OC)cc32)cc1OC,-9,?,-5%,2.0,11,-4,10,-0.7
O=C(NNC(=O)c1ccncc1)Nc1cccc([N+](=O)[O-])c1,-26,1.2,-3%,-1.2,1.5,-2,.,-0.9
CC(=O)c1ccc(NC(=O)c2cc3ccccc3o2)cc1,7,1.5,.,0.4,-1.0,9,-14,-2.5
CCCCCCCc1n[nH]c(=S)n1Cc1ccccc1,11,-4.9,-10%,-2.5,0.0,.,4,0.8
COc1ccc(OC)c(C2=C/C(=C/c3ccccn3)C(=O)O2)c1,5,-24,.,-1.2,-1.2,6,14,-0.5

# Later entries.
SMILES,Calb FLC,RanGTP-Impb inh,Vif TR-FRET,LANA-H2A inh,AF4-AF9 inh,Beta apoptosis,T cruzi inh,A1 inh
O=C(CN(c1ccccn1)S(=O)(=O)c1ccc(F)cc1)Nc1ccc(F)cc1F,-9,2.2,4%,-2.8,1.0,-1,-10,0.5
CCC(Cc1ccccc1)NC(=O)c1ccc2nc(N3CCOCC3)sc2c1 (stereo not drawn),4,-0.3,.,-1.6,-46,0,-6,0.3
CC(=O)c1ccc(O)c(CC=C(C)C)c1,-2,-6.8,.,4.5,-1.1,.,3,-0.2
COc1cccc(NC(=O)C(=O)NCCCN2CCCC2=O)c1,-13,-1.9,-2%,.,7.2,-3,18,-2.0
CCOc1ccccc1N1CC(C(=O)N2CCc3ccccc3C2)CC1=O (stereo not drawn),4,3.0,-9%,-2.0,.,-2,-4,-0.2
Cc1ccc2c(c1)cc(C(=O)N[C@@H](Cc1ccccc1)C(=O)O)n2C,-1,3.7,6%,-0.4,-0.9,1,-18,-0.1
O=C(C1CCCN(S(=O)(=O)c2ccccc2)C1)N1CCCc2ccccc21 (stereo not drawn),-1,0.8,18%,-2.3,.,-3,18,-0.4
O=C1c2[nH]nc(-c3ccccc3O)c2C(c2ccccc2)N1Cc1ccco1 (stereo not drawn),15,-1.9,5%,1.7,.,2,4,0.0
Cc1ccc(NC(=O)Cn2nnc(-c3ccc4c(c3)OCO4)n2)cc1F,4,-0.6,1%,-0.4,-0.5,-5,1,-0.5
Cc1nn(CC(=O)NC(C)C)c(C)c1[N+](=O)[O-],-7,1.3,6%,4.4,-3.7,-10,1,0.8
COc1cccc(CNC(=O)CCS(=O)(=O)c2ccc3c(c2)NC(=O)CS3)c1,-2,0.9,5%,5.2,-6.1,-3,1,1.1
O=C(CSc1nnnn1-c1cccc(F)c1)NC1CC1,.,.,11%,2.3,-1.4,-2,.,0.3
O=C(c1ccc(Cl)cc1)[C@@H]1[C@@H]2C(=O)N(c3cccc4ccccc34)C(=O)[C@@H]2C2c3ccccc3C=NN21 (stereo partly drawn),-16,-5.9,.,1.7,1.5,-8,16,0.0
COc1ccc(-c2cc3nc4c(c(N5CCC6(CC5)OCCO6)n3n2)CCC4)cc1,35,2.5,.,3.3,0.9,5,20,0.1
COc1ccc(CC(=O)Nc2ccc(C(=O)NCC(C)C)cc2)cc1,-14,2.7,-3%,-5.1,.,1,13,0.8
COc1ccc2c(c1)c(=O)cc(-c1ccccc1)n2C,1,-0.2,2%,4.0,.,0,-2,-0.1
Cc1nn(C)c(C(=O)N2CCN(C(=O)c3ccco3)CC2)c1[N+](=O)[O-],-5,0.7,-3%,-3.5,0.9,-5,-11,-0.2
O=C(COc1cccnc1[N+](=O)[O-])Nc1c(Cl)cccc1Cl,.,.,1%,0.7,0.3,3,.,0.2
Cc1ccc(C(=O)NN2C(=O)C3C4C=CC([C@@H]3C2=O)C42CC2)cc1 (stereo partly drawn),-1,-0.9,.,1.7,-0.1,-7,.,0.6
Cc1nc2cc(C(=O)OCC(=O)Nc3cccc(Cl)c3)ccc2n1-c1ccccc1,2,?,-3%,-4.4,0.3,-2,-13,0.0
C=CCN1C(=O)C2(OCCCO2)c2cc(CCCC)ccc21,-13,3.9,.,2.1,2.4,1,17,0.2
CC(C)(C)c1nnc2sc(SCC(=O)N3CCCc4ccccc43)nn2c1=O,1,1.6,-6%,2.5,.,-11,23,0.7
O=C1CN(S(=O)(=O)c2ccc(Cl)cc2C(F)(F)F)CCN1,46,-3.0,2%,-0.3,2.8,-3,-8,1.3
CSc1nc2[nH]c3c(c2c2nnnn12)CCCC3,-1,4.5,7%,-5.1,.,22,-1,-0.3
Cc1ccc(C)c(S(=O)(=O)Nc2cc(C)on2)c1,16,2.8,.,2.5,-1.7,8,-1,-0.7

# Continued:
SMILES,Calb FLC,RanGTP-Impb inh,Vif TR-FRET,LANA-H2A inh,AF4-AF9 inh,Beta apoptosis,T cruzi inh,A1 inh
Cc1noc(C)c1S(=O)(=O)N(CC(=O)O)c1ccc2c(c1)OCO2,-16,-0.3,21%,-0.4,.,-3,-2,-0.2
CN(C)S(=O)(=O)c1cccc(C(=O)Nc2cccnc2)c1,-3,3.8,24%,-1.1,.,-1,-8,-0.1
Cc1ccc(C(=O)/C=C/Nc2ccc([N+](=O)[O-])cc2Br)cc1,2,-5.3,15%,-3.5,.,-2,0,-2.6
O=C(c1ccc(-c2ccccc2)cc1)N1CCN(c2ccccc2)CC1,11,9.0,-7%,-3.2,-20,-5,-13,0.2
Cc1cc(C(=O)CSc2n[nH]c(N)n2)c(C)n1C1CC1,-12,0.8,7%,-3.2,.,-6,7,0.2
COc1ccc(CCNC(=O)c2ccc(COc3ccccc3OC)o2)cc1,0,0.7,.,2.1,2.7,-3,-2,0.1
Cc1cc(NC(=O)CSCC(=O)Nc2ccc(C)c(C)c2)no1,.,.,.,2.0,-7.3,-5,.,-0.1
O=C1CSCN1c1ccc(Cl)cc1,-14,-1.6,-8%,2.0,-3.2,-3,0,0.9
Cc1ccc(CN2Cc3cccc4c3[C@@H](CC2=O)[C@H](O)[C@H](O)C4)cc1,.,.,.,6.1,0.5,-6,.,0.4
COC(=O)[C@@H]1CC[C@H](C)[C@@H](c2ccc(C)cc2)N1C(=O)c1ccc(/C=N/O[C@@H](C)CN2CCCCc3nc(C)c(C)cc32)cc1,4,13,0%,-8.2,.,16,41,-2.1
CCc1ccc(S(=O)(=O)c2nnn3c2nc(N2CCOCC2)c2ccccc23)cc1,1,2.2,.,-1.0,-3.5,2,8,0.0
O=C(CC1C(=O)NCCN1Cc1ccoc1)NCCCn1ncc2ccccc21 (stereo not drawn),-21,3.7,-6%,-1.7,-1.3,.,-8,0.3
O=C(CCSCCC(=O)NCCN1CCOCC1)NCCN1CCOCC1,-5,1.1,-3%,2.9,.,-3,-13,-0.4
CC(=O)C1=NN(c2ccccc2)C(c2ccc3c(c2)OCO3)N1c1ccccc1 (stereo not drawn),-19,-1.0,-5%,-3.1,-26,-2,20,0.5
CN(C)S(=O)(=O)N1CCc2ccccc2C1,-15,-5.4,-3%,-3.9,.,-3,-11,.
CC(c1ccccc1)n1c(-c2ccc(Cl)cc2)n[nH]c1=S (stereo not drawn),6,1.6,.,1.3,-1.0,.,-11,0.3
COc1ccc2nc(N/C(N)=N/C(=S)Nc3ccc(C)c(C)c3)nc(C)c2c1,-7,0.5,-52%,-0.3,.,3,19,0.1
CC(C)c1nc(SCC(=O)c2c[nH]c3ccccc23)n[nH]1,-8,4.9,?,1.0,-0.7,3,2,0.2
CC(COc1ccccc1)N1CCC(CO)(Cc2ccccc2)CC1 (stereo not drawn),-15,2.1,10%,0.4,-0.8,0,46,1.6
O=C(O)[C@@H]1CCCN1S(=O)(=O)c1cccc2cccnc12,.,.,.,-7.2,1.1,-3,.,-0.6
COc1ccc(NCc2nnc(SCC(=O)N3CCCc4ccccc43)n2C)cc1,20,-0.8,25%,-3.6,.,-7,4,-0.5
Cc1ccc(N(C(=O)c2ccccn2)C(C(=O)NC2CCCCC2)c2ccncc2)cc1 (stereo not drawn),2,-3.0,1%,0.9,-2.2,-8,-7,1.1
CCOC(=O)c1c(NC(=S)N2CCCCC2)sc2c1CCN(C(=O)OCC)C2,0,5.0,-8%,1.1,3.8,24,13,0.2
COc1ccccc1NC(=O)CCSc1ccc(C)cc1,12,-1.5,-2%,-4.3,-2.6,5,13,-3.4
COc1ccc(/C=N/n2cncn2)cc1CSc1ccccn1,2,-3.3,2%,8.0,.,0,23,-0.5
CCOC(=O)CNC(=O)CSc1ncnc2c1nnn2-c1ccc(F)cc1,-2,?,11%,6.1,.,-5,-26,-3.8
